PINK1 modulator = changes PINK1 expression; Potency, µM (highest dose often 76.6 µM), for the others: top-dose activation (PINK1 increase), actives largely listed as activators; AID 624263; 410,000 compounds, 0.2% hits; PINK1 immunofluorescence, high-content cytometry, 24 h; active = well fitted activation curve with a large enough effect; inconclusive = small, poorly fitted or top-dose-only effect; inactive = flat fitted curve, though single readings scatter; cell line not stated here;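 note: potency is the fitted concentration of half-maximal effect; % of control where 0% means no effect; nearly all actives have a fitted effect of over 65% in size; a mitochondrial uncoupler was the plate control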
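Decision-based qHTS: stable cells, 24 h exposure to five compound concentrations, CCCP as control. Fixed cells stained for PINK1 plus nuclear, mitochondrial and cell markers, cytometer read.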
Six1-Eya2 blk = inhibitors of human Six1/Eya2 interaction | AID 651725 | AlphaScreen GST-Six1/His-Eya2 binding, biochemical; stronger effect = lower value; control for the full effect not named in the record | 360,000 compounds, 0.56% hits | Q15475+O00167 | activity change, % (test concentration not listed); in the data active = activity change below about -65%; inconclusive = about -30% to -65%; inactive = above about -30%; note: % is set by controls: 0 for no effect and ±100 for the full control effect
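Homogeneous AlphaScreen proximity assay pairing GST-Six1 with His-tagged Eya2 (added as 5X mix: 250 nM and 500 nM) in 50 mM Tris pH 8.0, 300 mM NaCl, 1 mM TCEP. Glutathione donor and nickel acceptor beads; 1 h, 37 °C, dark.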
D2 PAM = positive allosteric modulators of human D2 dopamine receptor. P14416. DiscoveRx D2 beta-arrestin cells, luminescence, 90 min; 100% = 57 uM dopamine signal. potentiation, % (no concentration beside the values). 360,000 compounds, 0.23% hits; active = potentiation of 50% or more; inconclusive = 30% to 50%; inactive = 30% or less;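 note: compound concentration not given in the record; tested on top of an EC20 dose of dopamine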
Target sequence (P14416 whole entry, looked up): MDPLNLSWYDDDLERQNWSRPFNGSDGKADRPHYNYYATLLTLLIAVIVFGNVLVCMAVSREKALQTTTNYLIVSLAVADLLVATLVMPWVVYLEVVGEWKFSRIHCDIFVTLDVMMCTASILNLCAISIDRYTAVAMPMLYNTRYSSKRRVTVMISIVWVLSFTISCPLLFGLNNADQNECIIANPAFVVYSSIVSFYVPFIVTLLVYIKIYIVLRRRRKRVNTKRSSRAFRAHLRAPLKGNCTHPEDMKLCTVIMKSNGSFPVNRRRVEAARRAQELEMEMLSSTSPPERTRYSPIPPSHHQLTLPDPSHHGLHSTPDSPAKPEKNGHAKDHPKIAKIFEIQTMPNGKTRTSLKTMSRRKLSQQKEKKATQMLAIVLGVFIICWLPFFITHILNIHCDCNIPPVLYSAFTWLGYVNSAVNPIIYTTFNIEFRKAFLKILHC
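PathHunter beta-arrestin assay in DiscoveRx D2 cells. Compounds were added with an EC20 of dopamine (50 nM final) for 90 min at 37 deg C. Luminescence was read 1 h after detection reagent, with 57 uM dopamine as the EC100 control.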
TRPML1 agonist = human mucolipin-1 channel agonism; Q9GZU1; TRPML1-expressing cells, Ca2+ dye fluorescence, FDSS; host cell line not named in the record; reference of the full effect not given here; activation, % (no concentration beside the values); 410,000 compounds, 0.12% hits; AID 624414; in the data active = activation above about 50%; inconclusive = about 30% to 50%; inactive = below about 30%; note: 0% is about no effect; the text of the record puts the active cut at 80%
Target sequence (Q9GZU1 whole entry, looked up): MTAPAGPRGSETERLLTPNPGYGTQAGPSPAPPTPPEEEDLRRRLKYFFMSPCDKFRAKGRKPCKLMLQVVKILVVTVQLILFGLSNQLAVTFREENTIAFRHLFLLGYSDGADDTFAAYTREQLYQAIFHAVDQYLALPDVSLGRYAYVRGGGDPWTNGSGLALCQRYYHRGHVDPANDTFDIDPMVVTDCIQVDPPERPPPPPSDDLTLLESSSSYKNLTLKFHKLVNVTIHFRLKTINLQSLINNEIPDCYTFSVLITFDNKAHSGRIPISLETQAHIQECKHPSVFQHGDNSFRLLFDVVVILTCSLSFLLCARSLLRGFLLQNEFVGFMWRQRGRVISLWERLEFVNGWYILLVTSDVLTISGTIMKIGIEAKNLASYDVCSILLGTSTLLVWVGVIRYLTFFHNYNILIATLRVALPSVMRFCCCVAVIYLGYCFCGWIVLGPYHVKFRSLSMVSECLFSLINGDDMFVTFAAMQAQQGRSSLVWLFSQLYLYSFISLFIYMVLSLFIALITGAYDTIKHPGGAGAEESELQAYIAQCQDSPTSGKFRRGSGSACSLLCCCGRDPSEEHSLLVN
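TRPML1-DL cells, Tet-induced overnight (~16 h, 37 degrees C), loaded 45-90 min at room temperature with Ca8 no-wash calcium dye plus quencher. FDSS fluorescence: 10 s baseline, compound pin-transfer, 110 s agonist read, then EC80 54-4 (4uM final) and 110 s antagonist read.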
TRPML1 inh = inhibitors of human TRPML1 channel; Q9GZU1; TRPML1-inducible cells, Ca2+ dye fluorescence, FDSS; stronger effect = lower value; inhibition of EC80 agonist-evoked calcium signal; activity change, negative = inhibition, % (no concentration beside the values); 390,000 compounds, 0.02% hits; AID 624415; in the data active means activity change below about -50%; inconclusive means about -30% to -50%; inactive means above about -30%;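 note: stimulus is agonist 54-4 at its EC80 concentration; % is set by controls: 0 for no effect and ±100 for the full control effect; compound concentration not given in the record; the text of the record puts the active cut at -80%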
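Tet-induced TRPML1-DL cells loaded with Ca8 no-wash calcium dye were read kinetically on FDSS. Compound addition was followed by EC80 agonist 54-4 (4 uM final); inhibition was read over 110 s.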
D2 agonist = activates the human D2 dopamine receptor; DiscoveRx PathHunter D2 beta-arrestin, luminescence, 90 min; 100% = 57 uM dopamine signal; 360,000 compounds, 0.084% hits; activation, % (test concentration not listed); in the data active = activation above about 40%; inconclusive = about 15% to 40%; inactive = below about 15%; note: compound concentration not given in the record; the text of the record calls up to 30% inactive
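DiscoveRx PathHunter D2 beta-arrestin cells (2,100/well) attached overnight, then compound-stimulated 90 min at 37 C in HBSS/10 mM HEPES/0.1% Tween-20 buffer; beta-galactosidase complementation read by luminescence after 1 h at ambient temperature. Dopamine 57 uM final (EC100) as control.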
Active calls of the source: *; ? = inconclusive; . = no result given; [ ] = dose if it differs, or a comment.

mol	PINK1 modulator	Six1-Eya2 blk	D2 PAM	TRPML1 agonist	TRPML1 inh	D2 agonist
Cc1cc(Cl)ccc1NC(=O)CS(=O)(=O)c1cccc2nsnc12	-4.2%	.	.	0.3	40	.
CCOC(=O)N1CCN(S(=O)(=O)CCNC(=O)c2ccc(F)cc2)CC1	0.6%	7	-1	0.8	-1	-4.9
O=C(Nc1ccc(F)cc1)C1CCN(C(=O)c2ccc([N+](=O)[O-])cc2)CC1	0.4%	5	-6	0.3	-17	-3.4
CCOc1cc(C(=O)N/N=C/c2ccoc2)cc(OCC)c1OCC	1.5%	-3	-24	-0.7	-6	-2.9
CCOC(=O)c1ccc2c(c1)nc(SCC(=O)N1CCOCC1)n2CC	-0.8%	-7	5	-0.2	8	4.5
C=CCC(C#Cc1ccccc1)N(C)C (stereo unspecified)	3.5%	-2	-5	-0.2	0	0.9
CC(C)Oc1cc(F)ccc1-c1cc(C(=O)NCC2CCCCC2)[nH]n1	1.9%	-5	-18	-0.5	.	-4.1
COc1cccc(-c2c(C(=O)N/N=C/c3sccc3C)nnn2-c2nonc2N)c1	-2.0%	-5	-12	-0.1	-13	-3.3
Cc1cc(C)n(C(C)CC(=O)Nc2ccc3c(c2)OCCO3)n1 (stereo unspecified)	-1.2%	0	-3	4.4	7	-3.2
S=C(c1cn(CCOc2ccccc2)c2ccccc12)N1CCCC1	?	-21	-2	2.0	13	2.4
c1csc(CNc2ncnc3sccc23)c1	-0.2%	2	-7	0.8	-12	-1.5
Brc1cccc(CSc2nnc(-c3ccncc3)o2)c1	0.3%	5	-10	-1.0	-7	-2.2
Cc1nc(C)c(N)c(=O)[nH]1	1.4%	7	-4	-0.2	0	2.0
COc1ccc(N2CCN(C(CNC(=O)c3c(F)cccc3F)c3ccc4c(c3)OCO4)CC2)cc1 (stereo unspecified)	3.4%	.	.	1.9	-8	.
Cc1scc(C(=O)Nn2cnnc2)c1-c1ccccc1	8.1%[38.3 µM]	1	-4	-0.4	6	-2.4
N/C(=N\S(=O)(=O)c1cc(C(F)(F)F)cc(C(F)(F)F)c1)c1ccncc1	0.4%	-3	-16	0.4	-5	4.6
CCn1c(SC/C=C/c2ccccc2)nnc1-c1cnccn1	-0.2%	-2	-9	-0.6	-6	1.4
CSc1ccccc1OCc1cc(C(=O)NCC(C)Oc2cccnc2)no1 (stereo unspecified)	2.2%	-16	-18	-0.2	-8	-1.7
Cc1ccc(OCC(O)CNC2CCCC2)c(C)c1 (stereo unspecified)	1.5%	0	-43	-0.5	9	-4.1
NC(=S)N/N=C/c1ccc(/C=N/NC(N)=S)cc1	-0.3%	3	2	0.8	16	0.4
CC1=CCP(=O)(c2ccccc2)C1 (stereo unspecified)	1.2%	6	-17	-0.2	-7	-4.0
Cc1cc(C=C2C(=O)CCCC2=O)c(C)n1-c1ccccc1	4.4%	-4	-7	0.0	-5	0.0
O=C(CNC(=S)N(Cc1ccccc1Cl)C1CCCC1)NCCN1CCOCC1	-1.3%	1	-3	0.0	9	-1.1
CC(C)NC(=O)C1(C)CCCN1Cc1ccccc1 (stereo unspecified)	2.3%	14	-5	-0.9	.	-5.9
Cc1ccc(-c2nnn(CC(=O)N3CCCCC3)n2)c(-n2cnnn2)c1	-0.6%	7	1	1.3	-3	-0.8

Overlap with the part before: 6 entries, then new ones.
mol	PINK1 modulator	Six1-Eya2 blk	D2 PAM	TRPML1 agonist	TRPML1 inh	D2 agonist
NC(=S)N/N=C/c1ccc(/C=N/NC(N)=S)cc1	-0.3%	3	2	0.8	16	0.4
CC1=CCP(=O)(c2ccccc2)C1 (stereo unspecified)	1.2%	6	-17	-0.2	-7	-4.0
Cc1cc(C=C2C(=O)CCCC2=O)c(C)n1-c1ccccc1	4.4%	-4	-7	0.0	-5	0.0
O=C(CNC(=S)N(Cc1ccccc1Cl)C1CCCC1)NCCN1CCOCC1	-1.3%	1	-3	0.0	9	-1.1
CC(C)NC(=O)C1(C)CCCN1Cc1ccccc1 (stereo unspecified)	2.3%	14	-5	-0.9	.	-5.9
Cc1ccc(-c2nnn(CC(=O)N3CCCCC3)n2)c(-n2cnnn2)c1	-0.6%	7	1	1.3	-3	-0.8
O=C(Cn1cnc2c(OCc3ccccc3)ncnc21)NCc1ccc2[nH]ccc2c1	9.2%	-1	14	0.2	1	4.5
Cc1ccc2[nH]c3c(c2c1)CN(C(=O)CN(C)CC1OCCO1)CC3	.	-2	-29	1.1	5	-0.2
O=C(COc1ccc2ccccc2c1)N1CCCC1	-2.1%	1	-7	0.4	-8	-0.9
COCCN(CCOC)Cc1c(O)ccc2c1O/C(=C\c1ccco1)C2=O	0.6%	-24	-4	8.7	26	-8.1
CCCCCCCCCCS(=O)(=O)N/N=C/c1ccc(O)cc1	5.4%	0	-2	3.9	-4	-2.9
COc1cccc(-c2nnc(NC(=O)CCS(=O)(=O)c3ccc(C)cc3)o2)c1	-1.1%	-16	7	0.6	-13	2.1
Cc1cc(C)n(CCNC(=O)CCc2nnc(CCc3ccccc3)o2)n1	-0.8%	-2	-6	0.3	-5	-5.0
Cc1ccccc1S(=O)(=O)Nc1nc2ccccc2nc1N1CCc2ccccc2C1	4.6%	30	6	0.0	29	-2.6
C/C(CC(=O)NC1CCCC1)=N\NC(=O)Cc1csc(N)n1	-0.7%	-1	?	0.3	-12	-1.9
COc1cccc(C(O)c2ncc(-c3ccc(C(F)(F)F)cc3)[nH]2)c1 (stereo unspecified)	4.3%	-10	2	-0.4	.	1.2
CC1=C(C(=O)OCc2ccc3c(c2)OCO3)C(c2ccccc2OCc2ccccc2)NC(=O)N1 (stereo unspecified)	-7.5%[38.3 µM]	-15	-14	0.1	7	-2.0
Cc1cc(C)c(NC(=O)CSc2nc(=O)n(Cc3ccncc3)c3c2CCC3)c(C)c1	-0.1%	.	.	1.1	18	.
COc1ccc(CNC(=O)CCC(=O)Nc2nnc(C(C)C)s2)cc1	-1.0%	5	-5	2.1	4	1.3
O=C(Cc1c(Cl)cccc1Cl)OCC(=O)c1ccc[nH]1	1.6%	-2	2	0.9	4	-0.2
O=C(NCc1ccncc1)c1cc(C(=O)C2CC2)c[nH]1	2.9%	6	-3	-0.7	-15	-9.0
COCCn1c(SCC(=O)Nc2ccccc2F)nnc1-c1ccoc1C	-0.5%	8	-2	2.1	25	-3.2
Cc1nn(CC(=O)OCC(=O)Nc2ccccc2[N+](=O)[O-])c(C)c1[N+](=O)[O-]	-0.3%	-1	-3	0.7	8	-0.3
COC(=O)c1[nH]c2cccc(OC)c2c1NC(=O)CN1CC(C)OC(C)C1 (stereo unspecified)	0.7%	-1	4	-0.4	0	-0.7
CCOCCCNC(=O)c1ccc(CS(=O)(=O)Cc2ccccc2F)o1	3.7%[38.3 µM]	-2	-4	-0.5	-8	-1.4
CCOC(=O)C1CCCN(S(=O)(=O)Cc2ccc(Cl)cc2)C1 (stereo unspecified)	-0.4%	-3	6	1.0	0	-1.6
O=C(CSc1nnc2ccc(-c3ccc(F)cc3)nn12)NCC1CCCO1 (stereo unspecified)	2.4%	5	-1	-0.1	14	-3.3
CC(C)COC(=O)N1CCCC(c2cc(C(=O)Nc3ccccc3Cl)no2)C1 (stereo unspecified)	2.2%	9	-7	1.9	-12	2.4
CCOc1ccc(NC(=O)c2ccccc2NC(=O)CN2CCN(C(C)=O)CC2)cc1	0.0%	-1	4	-0.8	7	-1.8
CCOCCCNC(=O)C(c1ccc(Cl)cc1)N1CCN(C(=O)c2ccco2)CC1 (stereo unspecified)	-0.4%	0	1	0.5	8	-3.2
Cc1ccc(-c2csc(NC(=O)c3ccco3)n2)cc1C	4.3%	-15	-3	-0.4	11	3.3

Other compounds.
Fields: PINK1 modulator | Six1-Eya2 blk | D2 PAM | TRPML1 agonist | TRPML1 inh | D2 agonist
COc1ccccc1CCNC(=O)CSc1nc(=O)[nH]c2c1CCC2
  0.0% | 3 | -16 | 0.3 | -12 | -3.7
OCc1ccccc1-c1ccc2nccn2c1
  0.0% | 3 | -5 | 4.3 | . | -1.9
CCNC(=O)NC(=O)C(C)OC(=O)c1ccc(SC)cc1OC (stereo unspecified)
  3.0% | 8 | -7 | 0.5 | 53 | 6.4
O=C(Nc1scc(-c2ccc(F)cc2)c1C(=O)O)c1ccco1
  -0.2% | -9 | -18 | -0.5 | -2 | -4.2
O=C(NC1C=CS(=O)(=O)C1)c1ccccc1 (stereo unspecified)
  0.1% | -1 | -1 | -0.3 | -5 | 2.7
Cc1cc(NS(=O)(=O)c2ccc(NC(=O)Nc3ccc4c(c3)OCO4)cc2)no1
  -0.4%[38.3 µM] | -16 | -3 | -0.4 | 31 | 0.5
O=C(NCC1CCCO1)c1ccccc1-c1nc(-c2ccccc2Cl)no1 (stereo unspecified)
  5.8% | 0 | -2 | -0.9 | 1 | 0.9
O=C(CCCO)c1ccc2c(c1)OCCO2
  8.1%[38.3 µM] | -8 | -13 | 1.3 | 5 | -1.3
O=C(Nc1ncn[nH]1)c1cccc(S(=O)(=O)N2CCOCC2)c1
  0.7% | -9 | -6 | -0.3 | -8 | 2.6
CCC(Sc1ccc(C(=O)O)cc1)C(=O)O (stereo unspecified)
  1.5% | 10 | -10 | 0.0 | 4 | -1.5
Cn1nc(C(=O)NCc2ccccc2)c2ccccc2c1=O
  2.1% | 0 | 12 | -0.2 | -16 | -1.2
O=C(N/N=C/C(Cl)=C/c1ccc([N+](=O)[O-])cc1)C(=O)Nc1ccc(C(=O)O)cc1
  -0.5% | -19 | 8 | . | . | 2.5
COc1ccc(NS(=O)(=O)c2ccc3c(c2)CC(C)N3C(C)=O)c(OC)c1 (stereo unspecified)
  2.6% | . | . | 0.9 | -3 | .
Cc1ccc(-n2c(C)cc(C)c(C#N)c2=O)cc1
  -0.3% | 5 | -10 | -0.1 | 32 | -0.4
CCC(C)NC(=O)Cc1ccc(NC(=O)N2CCCCc3ccccc32)cc1 (stereo unspecified)
  -0.6% | . | . | -0.3 | -5 | .
Cc1cc(-c2nnc(CCC(=O)N(C)C(C)c3cccs3)o2)no1 (stereo unspecified)
  0.1% | 6 | 1 | 0.0 | -8 | 0.7
CCCCC(C(=O)O)C(C)CC(=O)Nc1nncs1 (stereo unspecified)
  0.6% | 3 | -5 | . | . | -4.9

High-throughput results from PubChem BioAssay.
